Vaccinia Venus = vaccinia inhibition (Venus reporter). Vaccinia virus Venus reporter expression, fluorescence. Potency, µM (highest dose often 36.5 µM), without a hit: top-dose activity change, negative = inhibition, actives largely listed as inhibitors. 330,000 compounds, 0.46% hits. AID 720580; active means well fitted inhibition curve with a large enough effect; inconclusive means small, poorly fitted or top-dose-only effect; inactive means no such curve, though single readings can be large or run the other way; tested in A549 cells; note: nearly all actives have a fitted effect of over 30% in size; inactives centre near -10
Vaccinia mCherry = vaccinia inhibition (mCherry reporter). Potency, µM (doses to about 36.5 µM), for the others: at the highest dose activity change, negative = inhibition, usual class: inhibitors. Vaccinia virus mCherry reporter infection, fluorescence; about a quarter of the inactives have no number. 310,000 compounds, 0.63% hits; active = well fitted inhibition curve with a large enough effect; inconclusive = small, poorly fitted or top-dose-only effect; inactive = no such curve, though single readings can be large or run the other way; tested in A549 cells; note: nearly all actives have a fitted effect of over 35% in size; inactives centre near -10
* hit, by the source's call; i = inactive; ? = inconclusive; nt = no result given; [ ] = another dose, or the depositor's remark. % is set by controls: 0 for no effect and ±100 for the full control effect; potency is the fitted concentration of half-maximal effect.

SMILES | Vaccinia Venus | Vaccinia mCherry
CC(=O)Oc1ccc(NC(=O)CCC2CCCCC2)c(C(=O)O)c1 | -5.1% | -8.7%
COc1ccc(NC(=O)CN(C)S(=O)(=O)c2ccc3[nH]c4c(c3c2)CCCC4)cc1OC | -20.9% | -10.7%
CCN(CC(=O)Nc1ccc(NC(C)=O)cc1)C(=O)Cc1cccc2ccccc12 | -11.6% | -8.5%
CCOC(=O)c1cc(CC)sc1NC(=O)CCC(=O)O | -29.4% | nt
CC12CCC(=O)N1C(C(=O)Nc1cc(S(=O)(=O)N3CCCCCC3)ccc1OCC(F)(F)F)CS2 (stereo not drawn) | -6.0% | -7.3%
CCN(CC)S(=O)(=O)c1cccc(C(=O)NC(C(=O)NNC(=O)c2ccccc2F)C(C)C)c1 (stereo not drawn) | -22.6% | i
COc1cccc(NC(=O)CN(C)C(=O)c2cccc(S(=O)(=O)N3c4ccccc4CC3C)c2)c1 (stereo not drawn) | ? | -14.5%
CC1(C)C2([N+](=O)[O-])CN3CC1([N+](=O)[O-])CN(C2)C3c1ccc(O)c(O)c1 (stereo not drawn) | -14.0% | ?
CN(CCCC(=O)NCCc1ccccc1)S(=O)(=O)c1ccc([N+](=O)[O-])cc1 | -8.0% | -9.0%
CC(=O)Nc1cccc(/C(C)=N\NC(=O)c2ccc(Cn3nc([N+](=O)[O-])c(Cl)c3C)o2)c1 | -8.8% | -9.3%
C=CC[C@H]1CC(Cc2ccccc2)=C[C@H](CC=C)N1 | -18.3% | i
OC(COCc1cccs1)CN1CCN(c2ccccc2Cl)CC1 (stereo not drawn) | -14.8% | -6.9%
CCC1CCC2(CC1)NC(=O)N(CC(=O)NCc1ccccc1Cl)C2=O (stereo not drawn) | -23.1% | -19.8%
COc1ccccc1C(=O)n1nc(-c2ccccc2)nc1N | -20.4% | nt
COc1ccc(NC(=O)c2ccc(-n3nc(C)c[n+]3[O-])cc2)cc1 | ? | nt
Cc1cc(C)c(C#N)c(Sc2nc(C)c([N+](=O)[O-])c(C)c2C#N)n1 | ? | ?
O=C(C1CN(S(=O)(=O)c2ccccc2)CCN1S(=O)(=O)c1ccccc1)N1CCCCCC1 (stereo not drawn) | -3.8% | nt
O=S(=O)(c1ccccc1)N1CCN(C(=S)NCc2ccccc2)CC1 | -16.5% | -14.5%
CN(C)c1ccc(/C=C(\C#N)c2ccccc2)cc1 | -27.0% | -22.8%
Cc1nc2cc(C(=O)OCC(=O)NC(C)C(C)C)ccc2n1-c1ccccc1 (stereo not drawn) | -7.7% | i
O=C(c1cn(-c2ccccc2)nc1-c1ccc(Cl)cc1)N1CCOCC1 | -13.2% | -12.7%
CC(C)Oc1cccc(-c2cc(C(=O)NN3CCOCC3)c3ccccc3n2)c1 | -7.3% | -15.9%
Cc1ccccc1OCC(=O)OCc1cc(=O)n2nc(-c3cccs3)sc2n1 | -8.2% | -3.9%
COc1ccc(CCNC(=S)NCc2ccc(Cl)c(Cl)c2)cc1OC | -7.7% | -9.8%
C[C@H]1CN([C@@H](C)CO)S(=O)(=O)c2ccc(C#CC3CC3)cc2O[C@@H]1CN(C)S(C)(=O)=O | -9.9% | -21.9%
COc1ccc(Cn2cnc3c(NS(C)(=O)=O)c(C)c(C)cc32)cc1 | -8.9% | -12.8%
CCC1Oc2nc(SC)nnc2-c2ccccc2N1C(=O)c1ccccc1 (stereo not drawn) | -18.0% | nt
CC(C)(C=O)C1=CC(=O)c2ccccc2C1=O | -13.4% | -27.3%
Cc1c(C)c2ccc(OCC(=O)N3C[C@H]4C[C@@H](C3)c3cccc(=O)n3C4)cc2oc1=O | 5.6% | -5.2%
CCc1nc2c(OCC(=O)c3ccc(Cl)cc3Cl)cccn2c1N(C)C(=O)c1cccs1 | -26.4% | -5.6%
O=C(COC(=O)c1ccc(Cl)c(Cl)c1)Nc1cccnc1Cl | 2.0% | i
Cc1oc2ccc(OCc3ccc(Cl)cc3)cc2c1C(=O)O | 0.6% | -21.0%
O=C(NCc1ccccc1Cl)c1cc2c(s1)-c1ccc(Cl)cc1SC2 | -15.8% | 1.1%
COc1ccc(Oc2ncnc3sccc23)cc1 | -15.8% | -15.4%
O=C(c1ccco1)N1CCN(C(=O)C2CCCc3c2[nH]c2ccc(Cl)cc32)CC1 (stereo not drawn) | -16.1% | ?
CCC(Oc1ccccc1)C(=O)Nc1ccsc1C(=O)OC (stereo not drawn) | -12.5% | -17.9%
CC(C)(C)N1C(=O)[C@H]2[C@@H](c3ccc(Br)cc3)N3C(=O)N(c4cccc(Cl)c4)C(=O)[C@@]3(Cc3ccccc3)[C@H]2C1=O | -19.1% | i
COc1cc(C(=O)NCC(c2ccc(Cl)cc2)N2CCOCC2)cc(OC)c1OC (stereo not drawn) | -8.7% | -10.7%
COc1ccc(/C=N/n2c(C)nc3sc(C)c(C)c3c2=O)cc1 | -15.1% | 8.6%
CN(CC(=O)NCc1cccs1)CC(=O)Nc1ccccc1Cl | -9.9% | i
CN(C(=O)CCc1nc(-c2ccccc2F)no1)c1ccc(Cl)cc1 | -8.7% | -3.9%
CCOC(=O)c1c(S(=O)(=O)N2CCN(c3cccc(C(F)(F)F)c3)CC2)c(C)n(C)c1C | -26.7% | -12.4%
O=C(Nc1ccc(F)cc1F)c1ccc2c(=O)n3c(nc2c1)CCCCC3 | -4.5% | -0.5%
CCCCc1nc2ccccc2n2c(-c3ccc(C)cc3)c3c(=O)n(C)c(=O)n(C)c3c12 | 1.8% | -12.2%
Cc1cc2c(cc1C)/C(=N/NC(=O)c1ccccn1)CCC2 | -10.0% | i
COC(=O)C1(C#N)C(c2ccccc2)C1(C(=O)OC)C(=O)OC (stereo not drawn) | -16.9% | nt
CCOCCNC(=O)c1ccc2c3c(cccc13)CC2 | -9.5% | -12.0%
C[C@H](CO)N1C[C@H](C)[C@@H](CN(C)S(=O)(=O)c2ccccc2F)OCc2cnnn2CCCC1=O | -14.7% | 5.6%
C/C=C(\C)C(=O)N[C@@H](c1ccccc1)[C@@H](O)C(=O)O[C@H]1C[C@@]2(O)[C@@H](OC(=O)c3ccccc3)C3[C@](C)(C(=O)[C@H](O)C(=C1C)C2(C)C)[C@@H](O)C[C@H]1OC[C@@]31OC(C)=O (stereo partly drawn) | ? | -11.0%
CCOc1ncccc1C(=O)OCC(=O)c1ccc(OC)c(OC)c1 | 0.0% | i
O=C(COC(=O)c1ccccc1O)NC(c1ccccc1)c1ccccc1 | -1.9% | i
O=S(=O)(Nc1cccnc1Cl)c1ccc2c(c1)OCCO2 | -6.3% | -4.5%
CCOc1ccccc1C1CC(=O)Oc2c1c(=O)n(C)c1ccccc21 (stereo not drawn) | 6.2% | -3.9%
Cc1cc(C)c(C(=O)COC(=O)CNC(=O)c2ccccc2C)c(C)c1 | -6.0% | -10.4%
O=C1CCSC2(C(=O)N(Cc3ccc(F)cc3)c3ccccc32)N1c1ccc(F)c(F)c1 (stereo not drawn) | -20.1% | -24.7%
CCc1ccc(NC(=O)CSc2nnc(CC)c(CC)n2)cc1 | -9.7% | -4.3%
CCOC(=O)c1oc2ccc(S(=O)(=O)n3nc(-c4cc(OCC)c(OCC)c(OCC)c4)cc3N)cc2c1C | -15.4% | -20.6%
COc1ccc(C)cc1S(=O)(=O)N1CCCCC1 | -0.2% | -17.8%
CSc1cccc(NC(=O)C2CCCN2S(=O)(=O)c2ccc3c(c2)CCC(=O)N3)c1 (stereo not drawn) | -16.1% | -13.8%
OCC1CCCCN1C(=S)Nc1cccc(Cl)c1 (stereo not drawn) | 3.4% | 2.9%
(list continues)
SMILES | Vaccinia Venus | Vaccinia mCherry
CCN1CCN(C(c2ccc(F)cc2)c2c(O)cc(C)n(CCOC)c2=O)CC1 (stereo not drawn) | -1.2% | -3.4%
Cc1ccc(NC(NC(=O)c2ccccc2[N+](=O)[O-])C(Cl)(Cl)Cl)cc1 (stereo not drawn) | -16.7% | i
COc1ccc(S(=O)(=O)N(C)CC(=O)Nc2ccc3c(c2)OCCO3)cc1 | -12.6% | -0.5%
Fc1ccc(NC(=S)Nc2ccc(F)c(Cl)c2)cc1Cl | 10µM* | ?
O=C(NCCc1ccccc1)c1ccc(Cn2c(=O)c3cccn3c3cccnc32)cc1 | -15.0% | -14.5%
COc1ccc(-c2cc3c(=O)n(CC(=O)NCc4ccc(C)cc4)ncn3n2)cc1 | -5.2% | 0.8%
Cc1ccc(CN(C(=O)COc2ccccc2[N+](=O)[O-])c2ccccn2)o1 | ? | i
CSc1ccc(/C=C/C(=O)OCC(=O)c2ccc[nH]2)cc1 | -1.1% | -7.6%
CCOc1ccc(N=c2cc(-c3ccc(OC)cc3)oc3ccccc23)cc1 | -14.2% | -20.0%
Cc1nnc(SCC(=O)N(C)CC(=O)Nc2ccc(F)cc2)n1Cc1ccccc1 | -10.7% | i
CCOC(=O)c1cc(-c2ccccc2)sc1NC(=O)C(C)(C)C | -6.4% | nt
CCOC(=O)C1CCN(C(c2ccccc2)c2c(O)cc(C)n(Cc3ccco3)c2=O)CC1 (stereo not drawn) | -11.2% | -14.0%
CCN(CC)c1ccc(S(=O)(=O)N2CCOCC2)cc1NC(=O)CSc1nnc(N)s1 | -11.8% | -8.0%
CCCc1nc(N)sc1C(=O)OCC | -12.3% | nt
Cc1cn2c(=O)cc(COc3cccc(NC(=O)c4ccccc4C)c3)nc2s1 | -4.1% | -10.5%
C=CCSC1=C(C#N)C(c2ccccc2OCC)C(C#N)C(=O)N1 (stereo not drawn) | -15.0% | -13.3%
O=C(Cn1nc(-c2ccc(Cl)cc2)c2ccccc2c1=O)Nc1cccc(Br)c1 | -7.2% | -7.7%
Cc1ccc(NC(=O)Cn2c(O)c(N=NC(N)=O)c3ccccc32)cc1 | -13.6% | -6.7%
C[C@H](O)Cc1cn(-c2cc3cc(C#Cc4ccsc4)ccc3oc2=O)nn1 | ? | -24.4%
CC(C)CC(=O)Nc1ccc(C(=O)COC(=O)C2CCC2)cc1 | -16.6% | i
CCN1C(Nc2ccccc2)=NC[C@@H]1CC(C)C | -4.9% | -2.4%
Cc1ccc(C)c(N(CC(=O)NC2CCCC2)C(=O)c2cc3cc4cc(C)ccc4nc3s2)c1 | -11.7% | -7.7%
COc1cccc(C2C(C(=O)Nc3ccc(C)cc3C)=C(C)Nc3c(C(=O)Nc4cccc(C)c4)cnn32)c1OC (stereo not drawn) | -18.1% | -4.9%
Cc1c(C(=O)N2CCCC2)oc2c1-c1nn(CC(=O)NCc3ccc(OC(C)C)cc3)cc1CC2 | ? | ?
O=S(=O)(NCCCN1CCN(c2ccccc2F)CC1)c1cccc2cccnc12 | -10.0% | 21.0%
CN(C)c1ccc(/C=C2\C=Cc3cc(N)ccc32)cc1 | -18.2% | i
CCC(C(=O)NC(C)CCc1ccco1)n1nc(C)n2c(cc3occc32)c1=O (stereo not drawn) | -25.8% | nt
S=c1[nH]nc(C23CC4CC(CC(C4)C2)C3)n1Cc1ccco1 | -20.4% | nt
COc1ccc2nc(Nc3nc(CSc4ccc(C)cc4)cc(=O)[nH]3)nc(C)c2c1 | -0.8% | 8.7%
CCN(CC)CCN1C(=O)C2C(C(=O)Nc3cccc(C)c3)C3C=CC2(O3)C1C(=O)NC1CCCC(C)C1C (stereo not drawn) | -21.1% | -13.1%
O=C(Nc1ccc(-c2csc(Nc3ccccc3)n2)cc1)c1cc([N+](=O)[O-])cc(C(F)(F)F)c1 | ? | 15.8µM*
CC1(C)CC(=O)c2cc(C(=O)Nc3ccccc3)c(=O)[nH]c2C1 | -8.0% | -5.2%
COc1cccc(N2C(=O)CC(N3CCN(S(=O)(=O)c4ccccc4)CC3)C2=O)c1 (stereo not drawn) | -11.0% | nt
CSCCC(C(=O)Nc1c(C)cccc1C)n1c(-c2ccc(-c3ccccc3)cc2)nc2ccccc21 (stereo not drawn) | -13.4% | i
COc1c(Cl)cc(Cl)cc1CNCCNCCO | 1.2% | -15.7%
Cc1cccc(C(=O)NC(=S)Nc2ccc(S(=O)(=O)N3CCN(C)CC3)cc2)c1 | -7.5% | nt

Some of these compounds in order of heavy-atom count, ascending:
SMILES | Vaccinia Venus | Vaccinia mCherry
COc1c(Cl)cc(Cl)cc1CNCCNCCO | 1.2% | -15.7%
Cc1cccc(C(=O)NC(=S)Nc2ccc(S(=O)(=O)N3CCN(C)CC3)cc2)c1 | -7.5% | nt
COc1cccc(N2C(=O)CC(N3CCN(S(=O)(=O)c4ccccc4)CC3)C2=O)c1 (stereo not drawn) | -11.0% | nt
CCN(CC)CCN1C(=O)C2C(C(=O)Nc3cccc(C)c3)C3C=CC2(O3)C1C(=O)NC1CCCC(C)C1C (stereo not drawn) | -21.1% | -13.1%

Another view of 2 compounds above.
structure: Cc1cccc(C(=O)NC(=S)Nc2ccc(S(=O)(=O)N3CCN(C)CC3)cc2)c1
  Vaccinia Venus: -7.5%	Vaccinia mCherry: nt

structure: O=S(=O)(NCCCN1CCN(c2ccccc2F)CC1)c1cccc2cccnc12
  Vaccinia Venus: -10.0%	Vaccinia mCherry: 21.0%

Further results.
SMILES | Vaccinia Venus | Vaccinia mCherry
CCCCn1c(SCC(=O)c2ccccc2)nc2c(sc3ccccc32)c1=O | -21.7% | -20.4%
CC(C)(C)c1cc(CSC(=S)NC2CCS(=O)(=O)C2)c(Br)c(C(C)(C)C)c1 (stereo not drawn) | -5.6% | -14.3%
Cc1nonc1OCCN1CCN(c2ccccc2[N+](=O)[O-])CC1 | 2.9% | -8.6%
CC(C)CNC(=O)C1(C)CCN1C(=O)c1ccc(C(C)(C)C)cc1 (stereo not drawn) | -11.9% | -12.7%
O=C(Cn1nnc(-c2ccc(F)cc2)n1)NC(=O)NC1CCCCC1 | -24.0% | -18.0%
O=C(NCCC1=CCCCC1)Nc1ccc2nsnc2c1 | 5.9% | i
Oc1c(C=C2N=c3ccccc3=N2)sc(=S)n1-c1ccc2ccccc2c1 | -8.7%[7.34 µM] | i[7.34 µM]
